Beta2AR agonist – activates human beta-2 adrenergic receptor causing internalization. P07550. Am2.2-beta2AR cells, FAP receptor internalization, flow cytometry; reference of the scale not given here. response, % (no concentration beside the values). 0.43% of 340,000 active;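 active = response above a set limit, near 3 SD of response in nonfluorescent compounds, cut at about 42% in these data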;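 note: stock transfer was 100 nL into about 11 µL; a reference agonist was the positive control; negative values mostly stem from fluorescent compounds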
Bfl-1 A1 inh – inhibitors of the anti-apoptotic protein A1, read as caspase activation. caspase activation, % (test concentration not listed). MEF A1-2A-BIM cells, Caspase-Glo 3/7 luminescence, 3 h; percent of clofoctol response, vehicle zero. 0.066% of 330,000 active;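 active = over half of replicate activation scores above 10%, or exactly half above 10 with the replicate mean above 10; inconclusive = replicate mean below 10 yet half the replicates above 10; inactive = over half of replicates below 10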;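 note: wells of about 30 µL received 50 nL stock; many hits fall short of the cut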
UCH37 inh – human UCH37 deubiquitinating enzyme inhibition | Q9Y5K5 | purified proteasome/UCH37, Ub-AMC cleavage fluorescence | inhibition, % (concentration not given with the values) | 0.33% of 330,000 active;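 active = mean of two replicates above 20%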;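 note: 0% = compound-free wells with enzyme and 100% = wells lacking proteasome; stock transfer was 100 nL into about 20 µL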
Target sequence (Q9Y5K5 whole entry, looked up): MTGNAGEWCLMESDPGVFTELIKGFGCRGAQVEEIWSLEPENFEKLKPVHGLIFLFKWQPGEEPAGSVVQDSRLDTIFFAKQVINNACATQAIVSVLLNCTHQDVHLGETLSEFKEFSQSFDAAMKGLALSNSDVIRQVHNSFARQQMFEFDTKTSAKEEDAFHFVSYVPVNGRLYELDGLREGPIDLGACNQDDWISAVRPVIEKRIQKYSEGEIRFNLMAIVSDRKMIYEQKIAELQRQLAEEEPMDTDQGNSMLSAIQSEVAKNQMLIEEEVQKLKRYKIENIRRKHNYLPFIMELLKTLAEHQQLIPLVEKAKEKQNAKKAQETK
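Material: Human UCH37 enzyme supplied as purified proteasome complex | Schedule: 30 min preincubation with enzyme, 25 min cleavage at room temperature | Detection: AMC fluorescence 355/460 nm | Measure: % inhibition of Ub-AMC cleavage fluorescence | Controls: Wells without proteasome as full block, compound-free enzyme plus substrate as uninhibited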
HNF4A DNA FP – change in binding of human HNF4 alpha to DNA; 0.3% of 360,000 active; HNF4a-FITC DNA binding, fluorescence polarization, 1 h; activity change, % at 10 µM; in the data active = activity change above about 30%, passing the limit was not always enough;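 note: controls were the assay level and a saturating level of protein; the project sought stronger binding though the title names inhibitors; some compounds called inactive have numbers as strong as hits; positive values seem to mean higher polarization but the record does not say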
Target sequence (P41235 whole entry, looked up): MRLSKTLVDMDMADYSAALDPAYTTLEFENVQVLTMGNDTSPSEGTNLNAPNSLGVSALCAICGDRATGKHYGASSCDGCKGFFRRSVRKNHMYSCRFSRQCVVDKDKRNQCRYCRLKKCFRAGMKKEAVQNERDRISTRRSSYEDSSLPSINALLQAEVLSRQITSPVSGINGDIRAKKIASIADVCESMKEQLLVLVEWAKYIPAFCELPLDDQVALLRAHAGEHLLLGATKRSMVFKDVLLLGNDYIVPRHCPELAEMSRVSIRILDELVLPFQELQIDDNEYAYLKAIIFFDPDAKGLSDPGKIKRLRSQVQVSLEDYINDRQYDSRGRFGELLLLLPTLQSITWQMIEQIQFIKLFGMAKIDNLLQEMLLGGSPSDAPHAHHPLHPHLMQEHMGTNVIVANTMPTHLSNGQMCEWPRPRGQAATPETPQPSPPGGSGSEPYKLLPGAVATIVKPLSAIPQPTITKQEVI
Vif A3G – HIV-1 Vif–A3G interaction blockers – biochemical, TR-FRET, GST-Vif 1-94, biotin-A3G peptide, dose response retest, primary screen (AID 1117319) | TR-FRET GST-Vif / biotin-A3G peptide binding; higher % means a stronger effect; test concentration not given here; strong numbers were not always called active | inhibition, %; hits with a dose series show IC50 in µM | 0.57% of 260,000 active;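 active = above the screen mean plus three standard deviations and confirmed in dose response; inconclusive = results disagree or hit not tested in dose response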;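 note: Vif residues 1-94 fused to GST binding biotinylated APOBEC3G peptide 110-148; 0% = full assay without inhibitor and 100% = GST in place of GST-Vif; retest series ran down from 100 µM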
LANA-H2A inh – blocks KSHV LANA binding to histone H2A/H2B; cell-free LANA-H2A/H2B peptide, fluorescence polarization; inhibition, % (test concentration not listed); 0.6% of 320,000 active; in the data active = inhibition mostly above about 10%, no sharp cut-off; inactive = mostly below about 6.7%;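 note: stock transfer was 7.5 nL into about 10 µL; 0% = median of vehicle wells and 100% = median of positive control wells; one replicate is shown; the record names a cut of 25% in any replicate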
Ecoli growth – blocks Escherichia coli growth; OD600 absorbance (test concentration not listed); OD600, 23 h; hits give low values; AID 1053175; 0.21% of 330,000 active;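 active = OD600 absorbance below the run mean of sample wells minus 3.6 SD, in any replicate, cut at about 0.56 in these data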;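 note: stock transfer was 300 nL into about 60 µL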
Active calls of the source: *; ? = inconclusive; · = not tested or not shown; & = joins results of further samples.

SMILES	Beta2AR agonist	Bfl-1 A1 inh	UCH37 inh	HNF4A DNA FP	Vif A3G	LANA-H2A inh	Ecoli growth
Cc1c(N2C(=O)C3C4C=CC(C4)C3C2=O)c(=O)n(-c2ccccc2)n1C (stereo not drawn)	-3	0.1	1.3	-3.4	?	-2.1	0.68
O=C(O)c1cc2ccc3cccc4ccc(c1)c2c34	2	0.7	-262	-0.8	-3%	-8.3	0.66
COc1ccc(C(CCN2CCOCC2)c2c(OC)cc(OC)c3c(C)cc(=O)oc23)cc1 (stereo not drawn)	-9	-0.5	-7.7	-2.0	·	3.7	0.64
OC(c1ccccc1)(c1ccccc1)C1CCN(C(=S)NCCc2ccccc2)CC1	-3	-0.1	1.5	-1.2	10%	3.4	0.74
O=C1NC(c2ccco2)Nc2ccccc21 (stereo not drawn)	0	-0.5	-419	4.8	4%	-4.2	0.79
N#Cc1ccc(CSc2nnc(-c3ccccn3)n2-c2ccc(Cl)cc2)cc1	5	1.3	1.9	-3.0	1%	-2.4	0.7
N#CCCN(CCC#N)C(=O)c1ccc2c(c1)OCO2	2	0.8	3.3	3.2	-7%	2.1	0.68
CCOC(=O)[C@@H]1[C@H]2COc3ccc(Br)cc3[C@H]2N2C(=O)N(c3ccc(C)cc3)C(=O)[C@]12C	5	1.0	5.0	-6.4	·	-6.8	·
Cc1ccccc1NC(=O)CSc1nnc(NC(=O)c2ccco2)s1	2	-0.6	4.8	-0.2	·	-3.9	0.65
O=C(CCNS(=O)(=O)c1ccccc1C(F)(F)F)N1CCN(c2ccccc2O)CC1	-3	0.1	2.0	4.8	-7%	6.0	0.7
O=C(c1cccc(S(=O)(=O)NCc2ccccc2)c1)N1CCCCC1	8	0.7	-0.4	-1.2	-4%	-0.4	0.69
O=C(NCC1CCCO1)c1cccc(N2CCCC2=O)c1 (stereo not drawn)	1	0.5	-0.6	1.7	-2%	3.6	0.69
Fc1ccc(-c2ccc3c(c2)C2CC3CCN2)cc1 (stereo not drawn)	-2	·	·	1.8	-4%	·	·
COc1ccc(NC(=O)Nc2ccccc2C)c(OC)c1	5	0.4	1.9	-0.5	?	-0.5	0.7
CC(C)C1Cc2ccccc2-c2[nH]c(=S)[nH]c(=O)c21 (stereo not drawn)	3	1.0	-26	3.5	·	-1.7	0.65
COc1ccccc1N1CCN(CCC(=O)Nc2ccc3c(c2)OCO3)CC1	-4	0.3	2.3	3.7	0%	-3.3	0.65
CC1(C)Cc2ccccc2C(=NCC(=O)O)N1	2	1.8	1.2	5.1	-9%	-0.8	0.7
Nc1nn(-c2cccc(F)n2)cc1-c1ccc(Cl)cc1	-5	·	3.7	-3.4	-6%	·	0.74
CC(C)c1ccccc1NC(=O)CNCCc1ccc(C(F)(F)F)cc1	9	-1.2	4.7	1.4	?	1.5	0.63
FC(F)(F)C(Oc1nc(NC2CCCCC2)nc(N2CCOCC2)n1)C(F)(F)F	-6	-0.6	-0.4	2.8	1%&1%	-3.2	0.72
COc1cc(CNc2ccc(CNc3ncn[nH]3)cc2)cc(Cl)c1OCc1ccccc1	29	-0.7	3.2	0.7	·	2.7	0.75
Cc1cc(C)c(NC(=O)CNC(=O)CN(C)Cc2ccc(Br)s2)c(C)c1	7	-0.9	-1.5	13	28%	-4.2	0.64
CCOc1cc(N2CCOCC2)c(OCC)cc1NC(=O)CSc1nccc(C)n1	4	1.4	1.2	3.0	-1%	4.0	0.68
COc1ccc(CNC(=O)COC(=O)C2(C)CC2(Cl)Cl)cc1 (stereo not drawn)	-4	-0.9	0.6	2.5	·	1.3	0.64
O=C(COC(=O)c1ccc(O)cc1)Nc1ccc(S(=O)(=O)N2CCOCC2)cc1	-1	-0.6	1.0	-4.3	·	-6.0	0.72
COc1cc(C(=O)N2CCN(S(=O)(=O)c3ccc(C(C)C)cc3)CC2)ccc1OCC(=O)N1CCOCC1	0	·	1.0	4.2	·	·	0.7
O=C(Nc1cc(Cl)cc(Cl)c1)C(NCCCO)c1ccccc1 (stereo not drawn)	·	0.6	4.8	·	2%	8.9	0.7
O=CN1CCCN(Cc2nc(Cc3ccccc3F)no2)CC1	-3	-0.2	4.8	-0.1	-7%	5.0	0.72
COc1cccc2sc3ccc(C#Cc4ccc(N)cc4)cc3c(=O)c12	-1	-1.5	6.7	-2.2	·	2.9	0.79
C/C(=N/NC(=O)CNC(=O)COc1cccc(C)c1)c1ccc(Cl)cc1	-2	-0.1	·	5.6	·	1.6	·
O=C(N/N=C\c1ccc(Br)cc1)c1ccc(Cn2cccn2)o1	-4	-1.5	·	2.9	4%	2.1	·
CCO[C@@H]1OC(C(=O)O)=C[C@H](c2ccc(Br)cc2)[C@H]1CCCO	-3	-0.6	1.2	-5.1	·	7.3	·
CCN(CC)S(=O)(=O)c1cc(NC(=O)C2Cc3ccccc3C(=O)O2)ccc1C (stereo not drawn)	-5	3.2	4.0	0.1	·	1.8	0.72
Cc1ccccc1Cn1cnc2ccccc2c1=O	-4	0.0	4.8	0.7	1%	0.6	0.71
O=C(Cn1ccc(C(F)(F)F)n1)N=Nc1c(O)[nH]c2ccc(Br)cc12	-6	-0.6	·	-2.6	8%	4.7	·
COc1ccc(-c2[nH]ncc2CN(C)Cc2cccnc2)c(F)c1	-2	-0.1	0.3	4.5	-1%	3.5	0.67
COc1ccc(C2C3=C(COC3=O)Oc3cc4c(cc32)OCO4)cc1OC (stereo not drawn)	18	·	·	-3.8	-3%	·	·
CC(C(=O)O)N1C(=O)c2ccccc2C1=O (stereo not drawn)	0	0.7	1.7	-0.1	-3%	-1.4	0.69
CCCCCCSc1ccc([C@H]2N[C@@](C)(C(=O)OC)[C@H]3C(=O)N(CC)C(=O)[C@@H]23)cc1	-9	0.6	0.8	-2.9	·	5.0	·
CC1CC(C)CN(S(=O)(=O)c2ccc(NC(=O)CN3C(=O)NC(C)(c4ccccc4)C3=O)cc2)C1 (stereo not drawn)	1	0.6	-1.4	-2.1	·	1.0	0.71
O=C(CN1CCc2ccccc21)NN1CC(=O)N(c2ccc(Cl)cc2)CC1=O	-3	1.1	4.7	-1.1	·	-5.4	0.63
O=C1c2cc([N+](=O)[O-])cc3cc([N+](=O)[O-])cc(c23)C(=O)N1c1ccccn1	16	-0.5	6.4	-1.9	23%	-404	0.67
CCOC(=O)C1=C(C)Nc2ccccc2N=C1NC(=O)/C=C/c1ccc(OC)cc1OC	5	-0.1	-0.3	2.5	-2%	-4.1	0.7
CCOC(=O)C1(Cc2cccc(OC)c2)CCCN(C(=O)CCSC)C1 (stereo not drawn)	1	-0.6	7.9	-4.0	·	-0.5	0.7
CCC1CCCCN1C(=S)NC(=O)c1cc(Br)ccc1Cl (stereo not drawn)	4	0.2	1.7	1.6	-5%	3.3	0.67
Cc1ccc(NC(=O)Cn2c(CCC(=O)O)ccc2-c2cccs2)cc1	-3	-0.5	-8.0	-2.1	?	-0.8	0.74
CC(C)(C)OC(=O)NNC(=O)c1cccs1	-8	0.1	0.0	1.5	·	4.5	0.65
COc1ccc(/C=C/C(=O)NC(=S)Nc2ccc(S(=O)(=O)Nc3cc(OC)ncn3)cc2)cc1	8	·	-2.3	8.3	?	·	0.69
Cc1ccc(CN2C(=O)N/C(=C/c3cc(C)n(-c4ccccn4)c3C)C2=O)cc1	6	-0.1	-14	0.7	·	0.1	0.71
C/C(=N\Nc1ncc(Cl)cc1Cl)c1ccc(C#N)cc1	-3	-0.3	·	6.3	-10%	5.3	·
CCOc1ccc(NC(=O)C2C3C=CC4(CN(C(C(=O)OC)C(C)C)C(=O)C24)O3)cc1 (stereo not drawn)	4	1.8	3.8	1.9	-3%&-7%	-2.6	0.7
COc1ccc(NC(=O)C(=O)c2cn(CC(=O)N3CCCC3)c3ccccc23)cc1	26	0.5	·	0.4	·	-7.5	·
CCOC(=O)CN(Cc1sccc1C)C(=O)Nc1cccc(OC)c1	-10	0.3	-0.5	3.2	·	-0.2	0.67
CC(C)C[C@@H](NC(=O)C1CCC(CNC(=O)[C@H](Cc2ccccc2)NC(=O)OC(C)(C)C)CC1)C(=O)O (stereo partly drawn)	4	·	4.0	1.5	·	·	0.64
CS(=O)(=O)N(CC(=O)N1CCCC1)c1ccc2c(c1)OCCO2	-5	-1.2	0.6	2.2	-2%	2.9	0.64
COCCn1nnnc1C(c1cc2cc(OC)ccc2[nH]c1=O)N1CCC(Cc2ccccc2)CC1 (stereo not drawn)	-3	0.5	-32	4.2	-7%	-2.4	0.66
CN(C)S(=O)(=O)N(CCN1CCOCC1)Cc1ccccc1F	-7	0.6	2.9	0.4	1%	-0.5	0.7
O=C(Cc1cccc(C(F)(F)F)c1)NCc1ccc(Cl)cc1	-12	0.6	2.3	2.5	1%	2.7	0.64
COc1ccc(/C=C/C(=O)C2(O)CCCCC2)cc1OC	7	-0.2	1.9	-0.7	·	-1.0	0.7
O=C(CCN1Cc2ccccc2C1)c1ccc2c(c1)OCCO2	-2	-0.2	4.2	6.7	-3%	-0.3	0.69

Further records.
SMILES	Beta2AR agonist	Bfl-1 A1 inh	UCH37 inh	HNF4A DNA FP	Vif A3G	LANA-H2A inh	Ecoli growth
N#Cc1ccc(S(=O)(=O)N2CCN(c3ncccn3)CC2)cc1	2	1.5	3.1	0.8	·	-1.6	0.68
COc1ccc(NC(C#N)c2ccc(OC)cc2)cc1 (stereo not drawn)	6	0.4	2.5	-2.3	1%	1.3	0.69
CC1CCN(S(=O)(=O)c2ccc(C(=O)OC(C)C(=O)NC3CCCCC3C)cc2)CC1 (stereo not drawn)	7	0.3	-0.1	-4.1	·	1.3	0.73
OC1(Cc2cc(-c3ccccc3)no2)CCN(CCCc2ccccc2)CC1	1	-0.6	2.6	1.5	·	-3.2	0.66
COc1cc(/C=C/c2ccc3cccc(OC)c3n2)c(O)c([N+](=O)[O-])c1	3	0.9	-0.5	1.2	5%	12	0.7
O=C(CCCn1c(=O)c2sccc2n(CC(=O)NCc2ccco2)c1=O)NCc1ccco1	8	0.2	5.8	15	-3%	-2.8	0.72
CC(=O)Nc1ccc(S(=O)(=O)c2ccc(N)cc2)cc1N	0	0.4	3.3	2.7	-11%	0.0	0.74
C=CCNc1sc(C(=O)c2ccccc2)c(N)c1C#N	-6	-0.6	10.0	-0.7	-2%	-1.4	0.73
O=C(Nc1ccc(CN2CCCCC2)cc1)c1sc2ccccc2c1Cl	13	0.2	2.3	2.5	16%	1.8	0.59
S=C(Nc1ccc2c(c1)OCO2)Nc1ccc2c(c1)OCO2	2	-1.2	2.0	1.1	?	-4.0	0.73
O=C(CSc1nc2ccccc2c(=O)n1CC1CCCO1)Nc1ccccc1Cl (stereo not drawn)	-10	-0.4	1.0	4.5	·	-0.7	0.66
COc1ccc(NC(=O)c2cccc(NC(=O)C(C)C)c2)c([N+](=O)[O-])c1	-3	-1.7	3.5	-4.5	·	3.7	0.71
O=C(CSc1nnc(-c2cccnc2)o1)Nc1ccc(Cl)cc1	-3	-0.4	5.0	0.7	·	-6.0	0.7
Cc1ccc(Nc2nc(Cl)nc3ncn(C)c23)c(C)c1	1	·	3.2	1.7	-6%	·	0.72

Three of the compounds above, with values under each structure:
Results follow in this order: Beta2AR agonist | Bfl-1 A1 inh | UCH37 inh | HNF4A DNA FP | Vif A3G | LANA-H2A inh | Ecoli growth
C=CCNc1sc(C(=O)c2ccccc2)c(N)c1C#N
→ -6 | -0.6 | 10.0 | -0.7 | -2% | -1.4 | 0.73
O=C(CSc1nnc(-c2cccnc2)o1)Nc1ccc(Cl)cc1
→ -3 | -0.4 | 5.0 | 0.7 | · | -6.0 | 0.7
COc1ccc(NC(C#N)c2ccc(OC)cc2)cc1 (stereo not drawn)
→ 6 | 0.4 | 2.5 | -2.3 | 1% | 1.3 | 0.69

Assay outcomes as filed in PubChem.

The order is random; overall some 2.1% were active at least once.
